FGF22 binding – FGF22 (human) thermal shift binding. calls only at 9.99 µM. recombinant FGF22 thermal shift, SYPRO orange fluorescence; percent of sucrose octasulfate shift, DMSO zero. 340,000 tested, 1.5% active;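 active = melting point raised past a set limit in the mean and every replicate; inconclusive = no clear call; three in four hits are not shown here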
Target sequence (Q9HCT0 whole entry, looked up): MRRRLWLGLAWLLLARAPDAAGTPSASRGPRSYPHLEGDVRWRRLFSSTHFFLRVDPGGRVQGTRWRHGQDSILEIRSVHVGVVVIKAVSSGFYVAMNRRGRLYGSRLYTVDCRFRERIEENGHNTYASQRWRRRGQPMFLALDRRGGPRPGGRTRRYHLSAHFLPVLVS
rRNA inh HTS – inhibitors of bacterial rRNA selective over humanized ribosomes. GFP signal change (wild-type ribosome), % (no concentration beside the values). 350,000 tested, 1.6% active. E. coli WT GFP vs humanized-ribosome RFP mutants, fluorescence, 24 h; hits give low values; DMSO median 0, no signal -100;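 active = significant combined selectivity score with lowered wild-type GFP, culture density cut under 30%, mutant RFP and density less affected; inactive = any of these conditions unmet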; also: one replicate is shown; some compounds called inactive have numbers as strong as hits
RanGTP-Impb inh – inhibitors of RanGTP-importin-beta interaction, primary screen, biochemical, FRET, CFP-Ran, YFP-importin-beta, homogeneous; cell-free CFP-Ran/YFP-importin-beta FRET ratio; inhibition, % (concentration not given with the values); 300,000 tested, 1.1% active; AID 2216;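 active = most replicates above 15%; inconclusive = exactly half above 15%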;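 also: 0% = DMSO wells and 100% = Ran loaded with GDP instead of GTP; wells of about 40 µL received 100 nL stock; the first replicate is given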
ALR inh – inhibitors of human sulfhydryl oxidase ALR | P55789 | inhibition, % (test concentration not listed) | 290,000 tested, 3.8% active | purified ALR, DTT oxidation, H2O2 HRP-luminol luminescence;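 active = mean and each replicate at 75% or more; inconclusive = only one of the two met; inactive = neither met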;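 also: stock transfer was 7.5 nL into about 7.5 µL; 0% = neutral wells and 100% = wells with inactivated enzyme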
Target sequence (P55789 whole entry, looked up): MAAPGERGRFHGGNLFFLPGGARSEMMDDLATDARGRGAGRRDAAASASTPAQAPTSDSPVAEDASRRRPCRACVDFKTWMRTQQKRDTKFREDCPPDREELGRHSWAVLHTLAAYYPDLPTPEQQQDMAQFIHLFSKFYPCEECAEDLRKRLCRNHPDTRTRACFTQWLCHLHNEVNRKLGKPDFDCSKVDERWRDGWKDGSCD
MLL AF4-AF9 inh – inhibitors of human MLL-AF4/AF9 interaction. P42568. AlphaScreen, biotin-AF4 peptide binding to FLAG-AF9. inhibition, % at 10 µM. 350,000 tested, 0.47% active. AID 651704;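 active = every replicate reaching a set inhibition limit, whatever the replicate mean, cut at about 25% in these data; inconclusive = mean inhibition reaches that limit but some replicates miss it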;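 also: 0% = plate neutral control median and 100% = total signal loss; the record names both 10 and 1 µM as test concentration; the first replicate is given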
Target sequence (P42568 whole entry, looked up): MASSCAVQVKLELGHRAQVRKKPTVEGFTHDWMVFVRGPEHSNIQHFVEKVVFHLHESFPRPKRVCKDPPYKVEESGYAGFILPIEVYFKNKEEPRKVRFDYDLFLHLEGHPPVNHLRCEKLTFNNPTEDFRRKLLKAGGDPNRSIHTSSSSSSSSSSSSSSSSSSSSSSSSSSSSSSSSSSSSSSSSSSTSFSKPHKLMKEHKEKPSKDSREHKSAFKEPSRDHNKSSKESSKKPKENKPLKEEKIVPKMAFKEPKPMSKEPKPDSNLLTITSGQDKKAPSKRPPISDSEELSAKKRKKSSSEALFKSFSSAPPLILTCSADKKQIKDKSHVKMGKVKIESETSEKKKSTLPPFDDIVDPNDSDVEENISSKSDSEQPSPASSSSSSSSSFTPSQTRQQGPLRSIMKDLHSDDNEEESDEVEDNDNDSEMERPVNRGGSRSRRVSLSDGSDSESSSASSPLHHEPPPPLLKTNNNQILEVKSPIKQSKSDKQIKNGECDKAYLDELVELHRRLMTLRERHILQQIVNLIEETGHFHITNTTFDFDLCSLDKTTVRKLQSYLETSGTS
Beta apoptosis – beta cell apoptosis inhibition; INS-1E cytokine-induced death, ATP luminescence, 48 h; percent of positive-control rescue, neutral wells zero; protection from apoptosis, % (no concentration beside the values); 300,000 tested, 0.8% active; AID 435005;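 active = all replicates at 75% or more, or half of them and the mean; inconclusive = half reach 75% but not the mean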;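 also: 0% = cytokine-treated negative control wells and 100% = positive control rescue; higher means more ATP so stronger rescue from cytokine killing; wells of about 40 µL received 100 nL stock; the first replicate is given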
Calb FLC – C. albicans growth modulation with fluconazole. C. albicans CaCi-2 (fluconazole-resistant clinical isolate) + fluconazole, Alamar Blue growth, 48 h. growth inhibition, % (test concentration not listed). 300,000 tested, 0.57% active. AID 1979;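 active = most replicates above 75%; inconclusive = exactly half above 75%; inactive = most below 75%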;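 also: all wells also contain fluconazole at 8 µg/ml as a sub-toxic cotreatment; 0% = median of DMSO wells and 100% = median of geldanamycin control wells; wells of about 8 µL received 7.5 nL stock; the first replicate is given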
T cruzi repl – blocks replication of Trypanosoma cruzi; T. cruzi beta-gal in NIH3T3, luminescence, 90 h; inhibition, % (no concentration beside the values); 300,000 tested, 1.4% active;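 active = mean inhibition across valid replicates above about 55%, limit read from the data; inconclusive = mean below that limit but half or more replicates reach it; inactive = mean below it, under half of replicates reach it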;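 also: signal also drops with host cell toxicity which is not excluded here; 0% = plate median of DMSO wells and 100% = zero luminescence signal; higher percent means less beta-gal luminescence so fewer parasites; stock transfer was 50 nL into about 50 µL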
rRNA inh HTS OD600 – further read-out of rRNA inh HTS, marked with its call; OD600 change, %; measured here: OD600 growth;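 optical density of the mix in the first replicate; 0 = DMSO median and -100 = no signal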
rRNA inh HTS RFP – second read-out of rRNA inh HTS, no call of its own (marks repeat the call); RFP signal change, %; measured here: RFP humanized mutant strains;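 first replicate; 0 = DMSO median and -100 = no signal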
Active calls of the source: *; i = inactive; ? = inconclusive; · = not tested or not shown; + = active, no number. These rows are one share of the data; rates above refer to the full screens.

SMILES	FGF22 binding	rRNA inh HTS	rRNA inh HTS OD600	rRNA inh HTS RFP	RanGTP-Impb inh	ALR inh	MLL AF4-AF9 inh	Beta apoptosis	Calb FLC	T cruzi repl
CC(=O)c1cccc(NC(=O)CSc2nc3ccccc3c(=O)n2CCCN2CCOCC2)c1	i	-3	-7	4.8	·	14	-21	-2	·	·
O=C1OC(c2ccccc2)=C/C1=C/N1CCCCC1	·	7	9	0.6	1.9	85*	·	1	0	-77
Nc1nonc1C(=O)N/N=C/c1cc2c(cc1Br)OCO2	i	0	14	1.1	0.2	-3	-0.1	-6	-4	4
COc1cccc(C(=O)NCC(c2ccco2)N2CCOCC2)c1 (stereo not given)	i	7	4	1.2	-1.1	-4	0.2	-3	-3	-9
O=C(CSc1nnc(NC(=O)C2CC2)s1)Nc1ccccc1Cl	i	6	11	-3.9	1.9	-5	-2.6	-2	11	-4
CN(C(=O)COC(=O)CCc1c[nH]c2ccccc12)C(c1ccccc1)c1ccccc1	i	-3	-4	-5.4	-1.7	-9	7.7	-7	-3	-10
COc1cc(C2C(C#N)=C(N)N(N(C)C)C3=C2C(=O)CC(C)(C)C3)ccc1O (stereo not given)	i	7	10	1.1	7.0	21	0.1	3	1	-3
CCOC(=O)/C(=N\Nc1cc(Cl)ccc1Cl)N1CCN(CC)CC1	·	·	·	·	-2.2	·	·	-9	-3	29
Cc1cc(C)nc(SC(C)C(=O)Nc2ccc(S(N)(=O)=O)cc2)n1 (stereo not given)	·	·	·	·	-1.5	-6	·	4	-13	-5
Cc1cc(NC(=O)c2cc(-c3ccccc3C)nc3ccccc23)no1	i	-11	-15	-0.1	-2.8	-5	5.4	0	-12	-6
CCCCc1cc(=O)oc2cc(C)cc(OC(C)C(=O)NCc3ccncc3)c12 (stereo not given)	i	-3	-6	2.0	0.9	-3	0.8	13	-3	5
COc1cc([N+](=O)[O-])ccc1NC(=O)CCCOc1cc(C)ccc1C	i	6	10	-5.3	1.5	-7	-7.4	0	3	-4
CCCCCn1c(CN2CCN(C)CC2)nc2c1c(=O)n(C)c(=O)n2C	i	-2	4	4.3	?	3	1.4	4	8	2
O=C(O)c1ccc(N2C(=O)CC(N3CCN(c4ccc(Cl)cc4)CC3)C2=O)cc1 (stereo not given)	i	-1	-3	-3.6	-1.2	23	5.5	-2	-9	-5
COc1cccc(CN(C)C(=O)c2ccc(Oc3ccccc3)cc2)c1OC	i	-49	-74	-17	0.1	-2	0.4	-1	-4	-14
CCN(CC)CCCn1c(SCC(=O)Nc2cccc(F)c2)nnc1-c1ccoc1C	i	0	6	-1.0	3.0	-2	1.3	-6	9	-22
COc1cc(OC)cc(C(=O)NNC(=O)CCC(=O)c2cccs2)c1	i	·	·	·	0.2	-3	0.5	-5	0	-8
CNC(=O)COc1ccc(-c2nn(C)c(=O)c3ccccc23)cc1	·	·	·	·	1.2	-6	·	-4	-8	-11
O=C(Cc1cccs1)N1CCCC(c2nc3c(nnn3Cc3ccccc3Cl)c(=O)[nH]2)C1 (stereo not given)	·	·	·	·	-2.3	-7	·	3	-2	19
COc1ccc(S(=O)(=O)N(C)CC(=O)N2CCCC2)cc1Cl	i	6	1	-1.8	-3.0	-3	0.0	-6	-19	-7
COCCOCC(O)CN1CCN(c2ccc(C)cc2)CC1 (stereo not given)	·	·	·	·	1.2	41	·	-5	-7	-1
COC(=O)c1ccc(NS(=O)(=O)c2ccc(SC)cc2)cc1	·	·	·	·	-3.3	-3	·	-4	-4	-13
CCOc1cccc(C2C(C#N)=C(N)Oc3cc(C)[nH]c(=O)c32)c1OCC (stereo not given)	i	3	-1	-7.6	1.0	2	1.9	-12	0	-1
COc1cccc(NC(=O)Nc2ccc3c(c2)nc(C)n3C)c1	i	1	0	-2.7	·	-5	-1.3	9	·	-8
COc1ccc(C)cc1S(=O)(=O)N(C)CC(=O)N1CCC(C)CC1	i	-12	4	-1.6	0.5	·	-1.1	-1	?	?
COc1ccccc1C1(CC(=O)O)CCOC(C(C)C)C1 (stereo not given)	·	·	·	·	1.9	3	·	-1	3	-1
COc1ccccc1NC(=O)Nc1sccc1-c1nc2ccccc2s1	i	-19	5	15	?	7	3.7	-7	5	8
Cc1cc(C(F)(F)F)nn1Cc1ccc(C(=O)NCc2ccco2)o1	·	·	·	·	2.4	8	·	-2	1	10
COc1ccc(/C=C2\CCCC3C2=NN(C(=O)c2scnc2C)C3c2ccc(OC)c(OC)c2)cc1OC (stereo not given)	·	·	·	·	-4.8	-10	·	3	0	25
O=C(CSc1nnc(NC2CC2)s1)Nc1ccc(N2CCOCC2)cc1	i	0	-1	0.3	·	18	-3.7	2	·	·
Cc1ccc([N+](=O)[O-])cc1N=Cc1ccc(Br)s1	i	14	15	-2.1	3.2	-6	2.9	-5	-2	-15
Cc1ccc(CCNS(=O)(=O)c2cc3c(cc2C)n(C)c(=O)c(=O)n3C)cc1	i	0	-5	-0.5	-1.1	·	-14	·	-16	-4
C=CCn1c(CSCc2ccc(Cl)cc2)nnc1SCC(=O)NCc1ccccc1	·	·	·	·	-1.4	-2	·	-6	2	18
CC(C)CC1NC(=O)N(CC(=O)Nc2ccc(-c3ccccc3)cc2)C1=O (stereo not given)	i	2	3	2.4	·	-1	3.0	-9	·	·
Cc1cc(Nc2cccc(F)c2)n2ncnc2n1	i	15	8	2.1	-1.9	-10	-4.9	-5	7	-11
COc1ccc(C(CNC(=O)c2ccco2)N2CCCC2)cc1 (stereo not given)	i	6	10	1.2	·	-11	3.5	-7	·	·
Cc1ccc2sc(-c3ccc(NC(=O)c4cc(-n5cnnc5)ccc4Cl)cc3)nc2c1	·	·	·	·	?	31	·	28	19	38
CC(NC(=O)CCn1ccc2cc(S(=O)(=O)N3CCCC3)ccc21)c1ccccc1 (stereo not given)	i	2	0	-0.4	0.8	4	-5.3	·	-3	1
COc1ccc(OC)c(NC(=O)CSc2ccc(-c3ccco3)nn2)c1	i	-10	-20	-1.9	-1.7	-21	0.4	-2	4	-8
COc1cccc(C(=O)CC(=O)C(=O)Nc2cccc([N+](=O)[O-])c2C)c1	i	-11	-5	2.5	1.1	6	1.8	-11	-1	3
N#C/C(=C\Nc1ccc(Cl)cn1)S(=O)(=O)c1ccccc1	i	-35*	-13*	10*	-0.8	-11	-1.5	-2	-1	-10
CN(CC(=O)Nc1ccc(OC(F)(F)F)cc1)C(=O)/C=C/c1cc2c(cc1[N+](=O)[O-])OCO2	i	1	-40	7.8	·	-6	4.8	0	·	·
O=C(COC(=O)Cn1cnc2ccccc21)Nc1ccc2c(c1)C(=O)c1ccccc1C2=O	i	-13	-11	-3.6	0.3	·	2.2	-2	6	-15
Cc1ccc(C)c(N2CN(CCC3=CCCCC3)CNC2=S)c1	i	-28*	-20*	-4.2*	0.6	-5	9.5	·	-19	·
Cc1ccc2nc(N/N=C/c3ccccc3F)nc(-c3ccccc3)c2c1	·	·	·	·	1.5	·	·	16	-1	15
CCOc1ccc(NC(=O)CNC(=O)c2nn(-c3ccc(OC)c(OC)c3)c(=O)c3ccccc23)cc1	i	0	5	1.2	-3.2	1	-6.2	0	7	-20
COc1cccc(OC)c1C(=O)NNS(=O)(=O)c1ccc2ccccc2c1	i	2	-6	0.1	·	-17	-2.5	-6	-22	·
CN(CC(=O)NCc1cccnc1)S(=O)(=O)c1ccccc1	i	14	5	-0.9	6.2	·	5.6	-7	7	-4
CCOC(=O)/C(=N/Nc1ccccc1OC)N1CCCc2ccccc21	i	·	·	·	1.6	71	5.9	0	-16	18
CC(=O)Nc1ccc(-c2nnc(SCC(=O)Nc3ccc4c(c3)oc3ccccc34)n2C)cc1	·	·	·	·	-4.7	-19	·	-3	-2	21
CC1(C)C(=O)Nc2ccccc2N1C(=O)CSc1nc(-c2ccccc2)cs1	i	-12	-6	-5.8	2.2	-7	2.8	·	37	-18
CN(C)c1cc(-c2ccc(Cl)c(Cl)c2)oc(=O)c1Cl	·	13	5	-0.6	-2.1	31	0.7	-5	-2	2
O=C(COC(=O)c1ccc(NS(=O)(=O)c2cccs2)cc1)NCc1ccco1	·	·	·	·	6.4	5	·	-6	22	2
Cc1cc(C(=O)OCC(=O)Nc2ccc(F)cc2F)c(C)o1	·	-6	-10	-2.8	6.7	6	·	-9	-8	4
CC(C)CNS(=O)(=O)c1ccc(CC(C)C)cc1	i	-3	5	0.8	-1.2	-1	-0.6	2	-16	5
O=C1C=C(c2ccccc2)C[C@H](c2cccs2)[C@H]1n1cnc([N+](=O)[O-])c1	·	·	·	·	-0.2	3	·	2	?	11
CCCN(CCC)CCCNC(=O)c1cc2c(=O)n(CC)c3ccccc3c2s1	i	-2	-9	3.6	-5.1	·	1.3	5	-2	10
CCc1cccc(OCC2Cn3c(nc4c3c(=O)[nH]c(=O)n4C)O2)c1 (stereo not given)	i	21	10	2.9	4.9	-5	0.0	-6	-19	-4
Cc1ccccc1C(=O)N/N=C/c1cccc2ccccc12	i	8	11	-2.6	1.3	-10	-2.7	-1	1	7
CCc1noc(C)c1C(=O)NNC(=O)c1cc(OC)cc(OC)c1	i	6	10	-2.5	·	·	-0.2	7	·	·
Next entries follow:
SMILES	FGF22 binding	rRNA inh HTS	rRNA inh HTS OD600	rRNA inh HTS RFP	RanGTP-Impb inh	ALR inh	MLL AF4-AF9 inh	Beta apoptosis	Calb FLC	T cruzi repl
CCN(CCn1cccn1)C(=O)CCc1nnc(Cc2c[nH]c3ccccc23)o1	+	11	12	-1.7	-0.5	0	-1.5	-2	-10	-9
COc1ccc(CC(=O)NC2CCN(CC(=O)Nc3ccc4c(c3)OCCO4)CC2)cc1OC	·	·	·	·	8.0	-15	·	-3	-1	-1
CC(C)N(CCc1ccncc1)C(=S)Nc1ccc(F)c(Cl)c1	i	-57	-81	-26	0.8	0	2.5	-10	0	-14
CC1(C(=O)NC2CCCCCCC2)CCC(=O)N1CCN1CCOCC1 (stereo not given)	·	·	·	·	1.4	-3	·	-6	4	-6
CCOC(=O)c1cnc2c(C)cccc2c1NCCc1ccc(OC)c(OC)c1	·	·	·	·	0.7	8	·	·	-5	14
COc1ccc(CCNC(=O)COc2ccccc2[N+](=O)[O-])cc1OC	i	-15	-7	1.9	2.3	-11	·	2	-12	-1
CC(=O)NC(Cc1ccccc1)C(=O)NC1CCN(C(=O)NC2CCCCC2)CC1 (stereo not given)	·	·	·	·	-1.9	40	·	-6	9	3
CC(C)c1c(O)nc(SCC(=O)N2CCOCC2)[nH]c1=O	·	·	·	·	?	96*	·	-3	22	-7

One compound at a time, from the list above. Values in the order: FGF22 binding, rRNA inh HTS, rRNA inh HTS OD600, rRNA inh HTS RFP, RanGTP-Impb inh, ALR inh, MLL AF4-AF9 inh, Beta apoptosis, Calb FLC, T cruzi repl
Shown for `COC(=O)c1ccc(NS(=O)(=O)c2ccc(SC)cc2)cc1` → ·, ·, ·, ·, -3.3, -3, ·, -4, -4, -13
Shown for `COCCOCC(O)CN1CCN(c2ccc(C)cc2)CC1` (stereo not given) → ·, ·, ·, ·, 1.2, 41, ·, -5, -7, -1

High-throughput results as filed in PubChem BioAssay.
